VACV Venus inh: qHTS for Stage-Specific Inhibitors of Vaccinia Orthopoxvirus: Venus Reporter Primary qHTS; Vaccinia virus Venus reporter expression, fluorescence; hit rate 0.46% among 330,000; Potency, µM (series often up to 36.5 µM), for the others: at the highest dose activity change, negative = inhibition, hits mostly inhibitors; active means well fitted inhibition curve with a large enough effect; inconclusive means small, poorly fitted or top-dose-only effect; inactive means no such curve, though single readings can be large or run the other way; tested in A549 cells; note: nearly all actives have a fitted effect of over 30% in size; inactives centre near -10
VACV mCherry inh: qHTS for Stage-Specific Inhibitors of Vaccinia Orthopoxvirus: mCherry Reporter Primary qHTS; Vaccinia virus mCherry reporter infection, fluorescence; about a quarter of the inactives have no number; Potency, µM (highest dose often 36.5 µM), for the others: top-dose activity change, negative = inhibition, hits mostly inhibitors; hit rate 0.63% among 310,000; active = well fitted inhibition curve with a large enough effect; inconclusive = small, poorly fitted or top-dose-only effect; inactive = no such curve, though single readings can be large or run the other way; tested in A549 cells; note: nearly all actives have a fitted effect of over 35% in size; inactives centre near -10
Starred values were filed as active, the others as inactive; i = inactive; ? = inconclusive; . = not tested or not shown; & = joins results of further samples; [ ] = another dose, or the depositor's remark. % is set by controls: 0 for no effect and ±100 for the full control effect; potency is the fitted concentration of half-maximal effect.

SMILES	VACV Venus inh	VACV mCherry inh
CCOC(=O)c1cc2c(=O)n3cccc(C)c3nc2n(Cc2ccco2)c1=NC(=O)c1ccc(C)cc1	-5%	-13%
CCCc1cc(C(=O)OCC(=O)N(CCC)c2c(N)n(Cc3ccccc3)c(=O)[nH]c2=O)sc1C	-21%	?
CC(C)(C)C(C(=O)NC1CCCC1)N1CCN(c2ncccc2C#N)CC1 (centres undefined)	-10%	7%
COc1cc2c(cc1OC)C(=NO)CCCC2	-9%	-6%
COc1ccccc1C(=O)NC(=O)COC(=O)CNC(=O)c1ccccc1	-7%	-13%
Cc1c(NC(=O)c2ccc(Cl)c([N+](=O)[O-])c2)cccc1-n1cnnn1	-18%	-5%
N/C(=N/O)c1cccn1Cc1ccccc1[N+](=O)[O-]	-3%	-12%
Cc1ccc(NC(=O)CCn2cnc3ccccc3c2=O)cc1Cl	-15%	.
CCc1nc2c(OCC(=O)c3ccc(F)cc3)cccn2c1N(C)C(=O)C(C)C	7%	49%[activator]
COc1ccc(C(=O)NCC(c2ccco2)S(=O)(=O)c2ccccc2)cc1 (centres undefined)	-7%	-5%

Remaining list, next part
SMILES	VACV Venus inh	VACV mCherry inh
OCCCNc1ncnc2c1ncn2[C@H]1CN(Cc2ccc(Cl)cc2)C[C@@H](CO)O1	-4%	-5%
O=C1CCc2c(ccc3ccccc23)O1	-7%[87.9 µM]	-14%[87.9 µM]
N#Cc1c(NC(=S)NC(=O)C2CCCC2)sc2c1CCCCC2	?	-21%
CCC(C(=O)N1CCN(Cc2ccc3c(c2)OCO3)CC1)n1nnc2ccccc2c1=O (centres undefined)	3%	9%
CCC(CC)NC(=O)Cc1ccccc1OC	-31%	.
COc1ccc(OC)c2[nH]c(=O)c(CCNS(=O)(=O)c3ccc(F)cc3)cc12	-9%	-16%
C/C(=N\N=C(c1ccccc1)c1ccccc1)c1ccco1	-9%	-7%
CCOc1ccccc1N1CCN(CC(O)COc2ccc3c(C)cc(=O)oc3c2)CC1 (centres undefined)	-14%	0%
O=C1NC2c3c(Cl)sc(Cl)c3C(=O)C2O1 (centres undefined)	-6%	-15%
Cc1c(C(=O)NCC2CC2)sc2ncnc(NCCN3CCCCC3)c12	-1%	i

Remaining list, next part:
SMILES	VACV Venus inh	VACV mCherry inh
CC(NC(=O)CN(c1ccccc1F)S(C)(=O)=O)c1ccccc1 (centres undefined)	-6%	-11%
COc1ccc(CN(C(=O)c2ccc(C)cc2)C2CCS(=O)(=O)C2)cc1 (centres undefined)	12%[7.34 µM]	4%[7.34 µM]
O=C(CO/N=C1\CCCc2nonc21)Nc1ccc(Br)cc1	-5%	-11%
Cc1nn(-c2ccccc2)c(Cl)c1C(=O)NCC(C)C	-19%	.
CCN1C(=O)CC(=O)N(CC)C1=S	1%	i
O=C(O)c1ccccc1SSc1ccccc1C(=O)O	-6%	i
CN(c1cccc(NC(=O)CN2C(=O)c3ccccc3S2(=O)=O)c1)S(C)(=O)=O	-26%	.
CCC(C(N)=O)c1ccccc1 (centres undefined)	-14%	-14%
CN1CCN(S(=O)(=O)c2ccc(NN)nc2)CC1	-9%	-15%
Cc1cccc(NC(=O)c2cc(S(=O)(=O)N3CCCCC3)c[nH]2)c1C	-11%&-6%	-19%&-19%

Reprinted from the part before: two compounds; new compounds follow.
SMILES	VACV Venus inh	VACV mCherry inh
CN1CCN(S(=O)(=O)c2ccc(NN)nc2)CC1	-9%	-15%
Cc1cccc(NC(=O)c2cc(S(=O)(=O)N3CCCCC3)c[nH]2)c1C	-11%&-6%	-19%&-19%
COc1cccc2sc(NNC(=O)C3=COCCO3)nc12	-8%	-3%
COc1cc(NC(=O)c2cc(OC)c(OC)c(OC)c2)c2ncccc2c1	-13%	-18%
CC(C)(C)CC(=O)Nc1ccccc1N1CCN(c2ccc(F)cc2)CC1	-16%	-18%
Cc1ccc(CSC2=NCCN2C(=O)C2CC2)cc1	-8%	-13%
CCCN1CCC[C@H](c2cccc(O)c2)C1	-20%	i
Cc1ccc(NC(=O)CN(CCc2ccccc2)S(=O)(=O)c2ccccc2)c(C)c1	-11%	-24%
C(=N\n1cnnc1)/c1ccc(-c2ccccc2)cc1	-16%	.
Nc1nonc1C(=O)NCCNC(=O)c1ccccc1F	8%	.
NC(=O)CC(NC(=O)c1ccccc1)c1ccc(NC2CCN(Cc3ccccc3)CC2)c([N+](=O)[O-])c1 (centres undefined)	-8%	-12%
O=C1c2cccc(OCC(=O)N3CCCc4ccccc43)c2CCN1Cc1ccc(F)cc1	-12%	-8%

Of the compounds above, two have a cyano group:
SMILES	VACV Venus inh	VACV mCherry inh
CC(C)(C)C(C(=O)NC1CCCC1)N1CCN(c2ncccc2C#N)CC1 (centres undefined)	-10%	7%
N#Cc1c(NC(=S)NC(=O)C2CCCC2)sc2c1CCCCC2	?	-21%

A draw from above in order of SMILES length, falling:
SMILES	VACV Venus inh	VACV mCherry inh
NC(=O)CC(NC(=O)c1ccccc1)c1ccc(NC2CCN(Cc3ccccc3)CC2)c([N+](=O)[O-])c1 (centres undefined)	-8%	-12%
CC(C)(C)CC(=O)Nc1ccccc1N1CCN(c2ccc(F)cc2)CC1	-16%	-18%
COc1cccc2sc(NNC(=O)C3=COCCO3)nc12	-8%	-3%
Cc1ccc(CSC2=NCCN2C(=O)C2CC2)cc1	-8%	-13%
CCCN1CCC[C@H](c2cccc(O)c2)C1	-20%	i

(cont.)
SMILES	VACV Venus inh	VACV mCherry inh
N/C(=N\OC(=O)Cc1cccs1)c1ccc([N+](=O)[O-])cc1	-3%	-18%
c1ccc(C(=NNc2nc3ccccc3s2)c2ccccn2)cc1	100%[activator]	7.1µM*
O=C(O)C1(P(=O)(c2ccccc2)c2ccccc2)CCC1	-6%	.
CCN(CC)CCCn1c2c(c(SCC(=O)Nc3ccc(OC(F)(F)F)cc3)nc1=O)CCC2	?	-19%
O=C1C=C2c3ccccc3CC(C(=O)O)C2CC1 (centres undefined)	1%	17%
Cc1ccc2c(c1)nc1c3ccccc3nc(-c3ccccc3N)n21	-18%	-15%
CCCNC(=O)c1ccc(S(=O)(=O)c2ccc(OC)cc2)c([N+](=O)[O-])c1	-13%	?
CCCCNS(=O)(=O)c1ccc(NC(=O)c2c(-c3ccccc3)noc2C)cc1	-6%	-4%
Cc1ccc(-c2csc(N/N=C/c3ccco3)n2)c(C)c1	1%	-6%
C[C@@H](C[C@H](N)C(=O)O)C(=O)O	0%	0%

The listing continues.
SMILES	VACV Venus inh	VACV mCherry inh
CC(NC(=O)CN1CCCC1)c1ccccc1 (centres undefined)	-2%	-10%
COc1cc(-c2nc(Cn3nnc(C(=O)Nc4cc(C)cc(C)c4)c3C)c(C)o2)cc(OC)c1OC	-28%	?
CCN(Cc1ccccc1)C(=O)c1cc2c(=O)[nH]c3ccc(C)cc3c2s1	-25%	?
O=C(Nc1ccc(Cl)cn1)Nc1ccc(Cl)cn1	-5%	i
Cc1cc(Nc2ccccc2)nn1C(=O)c1ccc(Cl)cc1	-9%	-9%
Cc1cc(C)nc(NC(=O)CCN2C(=O)c3ccccc3S2(=O)=O)n1	-11%	i
COc1ccc(NC(=O)CN(C)C(=O)Cc2c(C)nc3ccccc3c2C)cc1	-7%	-10%
COC(=O)[C@@]1(C#N)[C@@H]2C=CC(C(C)=O)=CN2[C@@H](C(N)=O)[C@@H]1c1ccc(F)cc1	2%	i
O=C(COC(=O)C1CC(O)CN1S(=O)(=O)c1ccc(Cl)cc1)c1cccc(Cl)c1 (centres undefined)	2%	-4%
Cc1ccc(C)c(CNC(=O)C2CCN(c3nc4ccccc4nc3C(F)(F)F)CC2)c1	4%	19%

More records
SMILES	VACV Venus inh	VACV mCherry inh
O=C(CCCc1ccccc1)Nc1ccccc1C(F)(F)F	-12%	-25%
COc1cccc(N2CCN(C(=O)CN3CCSc4ccccc43)CC2)c1	5%	-9%
O=C(Nc1ccccc1F)C1CCCC1	-1%	-3%
COC(=O)c1ccccc1S(=O)(=O)N1CCn2cccc2C1C (centres undefined)	-9%	-2%
COCCn1nnnc1SCC(=O)NCc1ccc2c(c1)OCO2	-8%	-17%
CCCCCCN=Cc1c(O)n(C)c(=O)n(C)c1=O	-6%	-10%
Cc1ccc2oc(=O)c3cnn(CC(=O)NC4CCN(Cc5ccccc5)CC4)c3c2c1	7%	i
CCCC(=O)C1C(=O)CC(CC(C)SCC)CC1=O (centres undefined)	-6%	i
COc1ccc(C2c3cccn3CCN2S(=O)(=O)c2ccc([N+](=O)[O-])cc2)cc1 (centres undefined)	-24%	?
CCOC(=O)c1ccc2nc(NC(C)=O)sc2c1	-10%	i

More structures
SMILES	VACV Venus inh	VACV mCherry inh
COC(=O)c1ccccc1N(C)S(=O)(=O)c1cc2c(cc1C)OCC(=O)N2	-17%	-27%
COc1ccc(N2C(=O)CSC2c2ccccc2[N+](=O)[O-])cc1 (centres undefined)	-14%	-7%
CCOC(=O)N(C)c1ccc(C(O)(C(=O)OC)C(F)(F)F)cc1 (centres undefined)	-13%	.
Cc1cccc(C(=O)c2cn[nH]c2-c2ccc(C)cc2O)c1	-22%	-2%
O=C1CSC(=Nc2ccccc2)N1Cc1ccccc1	1%	-3%
Cc1cccc(CSc2nc3c([nH]c4ccccc43)c(=O)n2C)c1	-29%	-22%
COc1ccc(OC)c(C(C(=O)NC2CCCCC2)N(Cc2ccco2)C(=O)c2ccccn2)c1 (centres undefined)	2%	i
Cc1ccc(-n2ccnc(SCC(=O)NCCc3ccccc3)c2=O)cc1F	9%	-28%
CCOc1ccc2c(c1)C(C)=CC(C)(C)N2C(=O)Nc1ccccc1	3%	.
CCCCN(CC)CCNC(=O)c1[nH]c(C)c(C(C)=O)c1C	2%	-3%

Continued.
SMILES	VACV Venus inh	VACV mCherry inh
Cc1nn(C)c(C(=O)N/N=C/c2ccc(C(F)(F)F)cc2)c1[N+](=O)[O-]	-13%	-14%
CCn1c(SCc2cccc(Br)c2)nnc1-c1nonc1NC(C)=O	-21%	-15%
COc1ccc([C@H]2C[C@H](O)[C@@H](n3cc(COC(=O)c4ccccc4)nn3)CN2CC2CCCCC2)cc1	?	-26%
CN(C)/C=N/c1ncc(C(=O)c2ccc(Cl)cc2Cl)s1	-4%	-7%
O=C(Oc1ccc2c(=O)c(Cl)coc2c1)c1ccncc1	-6%	-7%
Cc1nn(-c2ccccc2)c(C)c1/C=N/NC(=O)c1ccccc1O	-12%	-18%
Cn1nc(C(=O)Nc2nc(-c3ccccn3)cs2)c2ccccc2c1=O	-15%	i
CCOC(=O)c1cccc(NC(=O)c2cc3c(=O)n(C)c4ccccc4c3n2C)c1	-28%	-18%
O=C(c1cc(-c2cccnc2)nc2ccc(Br)cc12)N1CCN(c2ncccn2)CC1	-13%	.
CC(=O)c1cccc(NC(=O)C2CCN(S(=O)(=O)c3ccc4c(c3)CCCN4C(C)=O)CC2)c1	-8%	5%

Look-ups from the results shown.
O=C(c1cc(-c2cccnc2)nc2ccc(Br)cc12)N1CCN(c2ncccn2)CC1 in VACV Venus inh shows -13%
COc1ccc([C@H]2C[C@H](O)[C@@H](n3cc(COC(=O)c4ccccc4)nn3)CN2CC2CCCCC2)cc1 in VACV mCherry inh shows -26%
Cc1nn(-c2ccccc2)c(C)c1/C=N/NC(=O)c1ccccc1O in VACV mCherry inh shows -18%

(next part)
SMILES	VACV Venus inh	VACV mCherry inh
COc1ccccc1C(CNC(=O)C1CC(=O)N(Cc2ccc(C)cc2)C1)N1CCCC1 (centres undefined)	-3%	-9%
COC(=O)C1=C(c2ccc(OC)c(OC)c2)C[C@@H]2CC[C@H]1N2C(=O)N1CCCCC1	-26%	i
N#Cc1ccc(C(=O)Nc2ccc(S(=O)(=O)NC3=NCCCCC3)cc2)cc1	-11%	.
Cc1ccc(C)c(C(=O)CSc2nc(-c3ccccc3)nc3c2CCCC3)c1	11%	5%
O=c1oc2ccc(NS(=O)(=O)c3cccc4cccnc34)cc2s1	-10%	?
O=S(=O)(c1ccc(Cl)cc1)c1nc(-c2ccco2)oc1N1CCOCC1	-5%	i
O=C(CCCN1C(=O)C(c2ccccc2)Oc2cccnc21)Nc1ccccc1C(F)(F)F (centres undefined)	-18%	-21%
COc1cccc(N2CC(O)Cn3c2nc2c3c(=O)[nH]c(=O)n2C)c1 (centres undefined)	-11%	i
CCOC(=O)c1cc(C)n(-c2ccc(OC)c(OC)c2)c1C	-21%	-24%
CCNc1c(NS(=O)(=O)c2ccc([N+](=O)[O-])cc2)c(=O)oc2ccccc12	-14%	-13%

Additional records.
SMILES	VACV Venus inh	VACV mCherry inh
CC(=O)NC(c1ccc(F)c(F)c1)c1nc(-c2cnc3ccccc3c2)cs1 (centres undefined)	?	-19%
COc1ccc(CCC(=O)NNC(=O)Nc2cc(Cl)ccc2C)cc1	-11%	-13%
O=C(Nc1cccc(C(=O)O)c1)/C(=C\c1ccccc1)NC(=O)c1ccccc1	1%	3%
Cc1ccc(C)c(NC(=O)c2oc(=O)c3ccccc3c2-c2ccccc2)c1	-13%&-10%	-16%&-2%
COc1ccc(CC(=O)NC2CCSc3ccccc32)c(OC)c1 (centres undefined)	3%	-9%
Cc1ccc2nc(-c3ccccc3)c(Cc3ccsc3)n2c1	-21%	-8%
N#Cc1nc(-c2ccc(OCc3ccccc3)cc2)oc1NCc1cccnc1	-15%	.
CC(=O)Nc1ccc(/C=C2\C=Cc3ccccc32)cc1	-22%	-14%
CC(C)CC(=O)Nc1ccc2ccccc2c1	-7%	-2%
Cc1ccc(C(=O)NCCc2nnc3ccc(SCC(=O)N4CCCCC4)nn23)cc1	-2%	i
COc1ccc(NC(=O)Nc2nc(C(N)CC(C)C)cs2)cc1 (centres undefined)	-17%	i

Screening data as filed in PubChem BioAssay.
